TRPML1 agonist – qHTS for Agonists of the Human Mucolipin Transient Receptor Potential 1 (TRPML1); Mucolipin-1 (Homo sapiens), Q9GZU1; TRPML1-expressing cells, Ca2+ dye fluorescence, FDSS; host cell line not named in the record; reference of the full effect not given here; activation, % (test concentration not listed); hit rate 0.12% among 410,000; in the data active = activation above about 50%; inconclusive = about 30% to 50%; inactive = below about 30%; also: 0% is about no effect; the text of the record puts the active cut at 80%
Target sequence (Q9GZU1 whole entry, looked up): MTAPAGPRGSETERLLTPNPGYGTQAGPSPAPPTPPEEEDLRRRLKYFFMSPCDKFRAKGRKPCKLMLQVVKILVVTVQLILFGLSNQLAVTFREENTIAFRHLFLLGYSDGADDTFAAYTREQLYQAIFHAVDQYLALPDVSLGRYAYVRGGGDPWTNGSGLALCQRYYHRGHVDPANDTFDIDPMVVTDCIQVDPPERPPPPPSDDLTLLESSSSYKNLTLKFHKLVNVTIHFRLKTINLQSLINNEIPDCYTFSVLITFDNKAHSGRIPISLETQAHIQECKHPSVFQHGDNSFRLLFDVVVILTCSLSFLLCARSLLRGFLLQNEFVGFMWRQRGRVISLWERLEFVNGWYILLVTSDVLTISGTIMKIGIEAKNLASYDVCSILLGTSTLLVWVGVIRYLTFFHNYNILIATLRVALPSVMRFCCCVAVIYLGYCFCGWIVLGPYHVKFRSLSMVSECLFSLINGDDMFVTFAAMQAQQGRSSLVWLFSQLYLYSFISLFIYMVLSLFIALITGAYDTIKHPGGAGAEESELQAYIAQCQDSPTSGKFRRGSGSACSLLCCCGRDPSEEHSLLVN
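Tet-induced TRPML1-DL cells, 1,500 per well, cultured overnight, were loaded with a no-wash Ca2+ dye for 45–90 min. Calcium fluorescence was recorded on the FDSS for 110 s after compound addition, before the EC80 agonist (4 uM 54-4) was added.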
CtBP-E1A inh – qHTS Assay for Inhibitors of the CtBP/E1A Interaction; activity change, % (concentration not given with the values); CtBP / adenovirus E1A interaction (AlphaScreen); hit rate 0.49% among 340,000; AID 651724, 2012; AlphaScreen GST-E1A/His-CtBP binding, 1536-well; hits give low values; control for the full effect not named in the record; in the data active means activity change below about -65%; inconclusive means about -30% to -65%; inactive means above about -30%; also: % is scaled to controls: 0 for no effect and ±100 for the full control effect
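GST-E1A and His-tagged CtBP (125 nM each as 5X stock) were preincubated with pin-transferred compound for 2 h at 37 °C in the dark, then glutathione donor and nickel acceptor beads were added for 1 h before AlphaScreen reading.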
D2 PAM – Beta-Arrestin HTS for Positive Allosteric Modulators of the Human D2 Dopamine Receptor: Potentiators | D(2) dopamine receptor (Homo sapiens), P14416 | DiscoveRx D2 beta-arrestin cells, luminescence, 90 min; 100% = 57 uM dopamine signal | potentiation, % (test concentration not listed) | hit rate 0.23% among 360,000 | AID 624464, 2012; active = potentiation of 50% or more; inconclusive = 30% to 50%; inactive = 30% or less;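 also: compound concentration not given in the record; tested on top of an EC20 dose of dopamine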
Target sequence (P14416 whole entry, looked up): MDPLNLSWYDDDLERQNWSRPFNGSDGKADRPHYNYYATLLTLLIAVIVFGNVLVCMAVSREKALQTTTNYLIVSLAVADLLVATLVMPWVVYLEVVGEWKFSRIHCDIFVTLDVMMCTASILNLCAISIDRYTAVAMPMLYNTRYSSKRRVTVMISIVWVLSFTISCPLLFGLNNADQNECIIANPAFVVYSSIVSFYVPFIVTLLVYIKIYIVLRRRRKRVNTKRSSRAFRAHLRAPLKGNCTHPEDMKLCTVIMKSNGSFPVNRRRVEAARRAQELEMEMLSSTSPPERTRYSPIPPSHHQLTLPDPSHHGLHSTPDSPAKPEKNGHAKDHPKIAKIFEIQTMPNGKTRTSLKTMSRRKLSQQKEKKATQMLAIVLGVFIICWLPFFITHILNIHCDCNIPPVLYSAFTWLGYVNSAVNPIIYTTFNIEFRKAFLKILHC
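D2 cells co-treated with compound plus 50 nM dopamine (EC20) for 90 min at 37 deg C to detect potentiation. Beta-arrestin recruitment was read as enzyme-fragment luminescence after 1 h at ambient temperature. Full response was set by 57 uM dopamine.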
D2 agonist – Beta-Arrestin HTS for Positive Allosteric Modulators of the Human D2 Dopamine Receptor: Agonists; D(2) dopamine receptor (Homo sapiens), P14416; DiscoveRx PathHunter D2 beta-arrestin, luminescence, 90 min; 100% = 57 uM dopamine signal; activation, % (no concentration beside the values); hit rate 0.084% among 360,000; AID 624465, 2012; in the data active = activation above about 40%; inconclusive = about 15% to 40%; inactive = below about 15%; also: compound concentration not given in the record; the text of the record calls up to 30% inactive
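Agonist mode: compounds alone added to overnight-plated D2 PathHunter cells for 90 min at 37 C, with 57 uM final dopamine (EC100) defining full response. Beta-arrestin recruitment detected by chemiluminescent reagent, read after 1 h at ambient temperature.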
PINK1 modulator – A Quantitative High throughput Screen to Identify Chemical Modulators of PINK1 Expression. PINK1 immunofluorescence, high-content cytometry, 24 h. Potency, µM (titrated, usually from 76.6 µM), for inactives: top-dose activation (PINK1 increase), usual class: activators. hit rate 0.2% among 410,000. AID 624263, 2012; active = well fitted activation curve with a large enough effect; inconclusive = small, poorly fitted or top-dose-only effect; inactive = flat fitted curve, though single readings scatter; cell line not stated here;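 also: potency is read from the fitted curve at half-maximal effect; % of control where 0% means no effect; nearly all actives have a fitted effect of over 65% in size; a mitochondrial uncoupler was the plate control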
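Decision-based qHTS: stable cells, 24 h exposure to five compound concentrations, CCCP as control. Fixed cells stained for PINK1 plus nuclear, mitochondrial and cell markers, cytometer read.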
Six1-Eya2 inh – qHTS Assay for Inhibitors of the Six1/Eya2 Interaction. AID 651725, 2012. activity change, % (no concentration beside the values). AlphaScreen GST-Six1/His-Eya2 binding, biochemical; hits give low values; control for the full effect not named in the record. Homeobox protein SIX1 (Homo sapiens) + Protein phosphatase EYA2 (Homo sapiens), …. hit rate 0.56% among 360,000; in the data active = activity change below about -65%; inconclusive = about -30% to -65%; inactive = above about -30%; also: % is scaled to controls: 0 for no effect and ±100 for the full control effect; compound concentration not given in the record
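GST-Six1 + His-Eya2 (5X stock: 250/500 nM); Tris pH 8.0, 300 mM NaCl, 0.05% BSA, 0.02% Tween 20; GSH donor/Ni acceptor beads; 1 h 37 °C dark; AlphaScreen readout.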
Active calls of the source: *; u = inconclusive; x = not tested or not shown; & = joins results of further samples; [ ] = remark or other dose.

1: Cc1cccc2cc3c(NC(=O)c4ccccn4)nn(C)c3nc12
2: O=C(NCc1ccccc1)c1cccc(COc2ccccc2Cl)c1
3: Nc1ccc(NC(=O)c2cccs2)cc1
4: CC(NC(=O)C1CCC(CNC(=O)[C@@H]2Cc3ccccc3CN2)CC1)c1ccccc1 (some centres not stated)
5: Cc1ccc(NC(=O)/C(Cl)=C\c2ccccc2)cc1
6: Cc1ccc(C2CC(=O)C=C(NCC(C)C)C2)cc1 (configuration not stated)

| entry no. | 1 | 2 | 3 | 4 | 5 | 6 |
| --- | --- | --- | --- | --- | --- | --- |
| TRPML1 agonist | -0.3 | 1.2 | -0.5 | 0.5 | 2.7 | 0.0 |
| CtBP-E1A inh | 25 | 27 | 6 | 1 | 16 | 0 |
| D2 PAM | -13 | -15 | -9 | -5 | -8 | -18 |
| D2 agonist | -1.3 | -1.7 | -5.7 | 0.5 | -1.4 | -1.9 |
| PINK1 modulator | 11% | 1.3% | -0.5% | 0.1% | -0.1% | 4.1% |
| Six1-Eya2 inh | 27 | 12 | 4 | 0 | -1 | -7 |

7: O=C(CN1CCC(NC(=O)c2ccccc2F)CC1)Nc1ccc2c(c1)OCCO2
8: COC(=O)/C(C#N)=C/c1c(-c2ccccc2)nc2n1CCS2
9: CCN(CC)C(=O)[C@H]1C[C@H](CC(=O)NCC23CC4CC(CC(C4)C2)C3)C(=O)N2CCc3c([nH]c4cc(-c5ccco5)ccc34)[C@]12C
10: CC(C)C(NC(=O)OCc1ccccc1)C(=O)OCC(=O)NCc1ccco1 (configuration not stated)
11: COc1ccccc1NS(=O)(=O)c1ccc(C)c(NC(=O)NCCCl)c1
12: Cc1cccc(Cc2nnc(CCC(=O)NCc3cn4ccccc4n3)o2)c1

| entry no. | 7 | 8 | 9 | 10 | 11 | 12 |
| --- | --- | --- | --- | --- | --- | --- |
| TRPML1 agonist | 0.7 | 0.7 | 2.6 | 0.7 | 1.1 | 0.1 |
| CtBP-E1A inh | x | -11 | 1 | 2 | -5 | 7 |
| D2 PAM | -10 | 0 | -3 | -4 | -5 | -4 |
| D2 agonist | -7.0 | -1.2 | -0.7 | 1.5 | -0.2 | -2.0 |
| PINK1 modulator | 3.5% | -1.2% | 2.6% | 1.2% | 3.2% | -0.2% |
| Six1-Eya2 inh | 2 | 9 | 0 | -16 | 6 | 1 |

13: O=C(CCSCc1cccc(Cl)c1)NCCc1ccc(Cl)cc1
14: COc1ccc(Nc2nc(C)cc(-c3cc(-c4ccccc4)on3)n2)cc1
15: O=C(Cc1ccc(F)cc1)N/N=C/c1ccc2c(c1)OCO2
16: Nc1ccc2c(Cl)cc(Cl)cc2c1
17: CN1OC[C@@H]2CN(C(=O)CCc3ccccc3)[C@H](c3cccc(Oc4ccccc4)c3)C[C@@H]21
18: CCN1C(=O)[C@@H]2[C@@H](c3ccc(-c4ccc5c(c4)OCO5)cc3)N3CCCC[C@@]3(C(=O)OC)[C@@H]2C1=O

| entry no. | 13 | 14 | 15 | 16 | 17 | 18 |
| --- | --- | --- | --- | --- | --- | --- |
| TRPML1 agonist | 1.4&0.6 | 0.3 | 0.0 | -0.4 | -0.3 | -1.0 |
| CtBP-E1A inh | 2 | x | 2 | -10 | -8 | -3 |
| D2 PAM | -19 | -3 | -3 | -5 | x | -14 |
| D2 agonist | -1.7 | -1.2 | -0.9 | -0.2 | 0.9 | -0.3 |
| PINK1 modulator | -0.1%&1.2% | 6.2% | 13% | 4.2% | 0.2% | 0.7% |
| Six1-Eya2 inh | -1 | 1 | 2 | -1 | 1 | -19 |

19: O=C(CCc1ccccc1)NNC(=O)c1cc(Cl)ccc1O
20: COc1cccc(NC(=O)Cc2c(C(=O)O)[nH]c3ccccc23)c1
21: COc1cc2[nH]c(C(=O)NCCc3ccccc3)cc2c(OC)c1OC
22: CCN(CC)S(=O)(=O)c1ccc(C(=O)NC(=S)N2CCN(c3ccccc3O)CC2)cc1
23: CC(=O)N1CC(=O)N(CC(=O)Nc2ccc(Br)cc2)C1=S
24: COc1cc(OC)c(OC)cc1CN1CCN(Cc2ccco2)CC1

| entry no. | 19 | 20 | 21 | 22 | 23 | 24 |
| --- | --- | --- | --- | --- | --- | --- |
| TRPML1 agonist | -0.4 | 0.6 | -0.2 | 0.1 | 0.2 | -0.6 |
| CtBP-E1A inh | -12 | -4 | -1 | -6 | 5 | 3 |
| D2 PAM | 0 | -2 | -24 | -13 | -4 | -3 |
| D2 agonist | 0.3 | -0.9 | -1.4 | -2.3 | -3.0 | 11 |
| PINK1 modulator | -0.4% | 0.2%[38.3 µM] | -0.4% | -0.6% | 0.5% | -0.8% |
| Six1-Eya2 inh | -2 | 2 | -11 | -12 | 7 | -1 |

Brought forward from above: four compounds, then new ones.
21: COc1cc2[nH]c(C(=O)NCCc3ccccc3)cc2c(OC)c1OC
22: CCN(CC)S(=O)(=O)c1ccc(C(=O)NC(=S)N2CCN(c3ccccc3O)CC2)cc1
23: CC(=O)N1CC(=O)N(CC(=O)Nc2ccc(Br)cc2)C1=S
24: COc1cc(OC)c(OC)cc1CN1CCN(Cc2ccco2)CC1
25: CN(C)C(CNC(=O)c1cc(Br)c(Br)s1)c1ccco1 (configuration not stated)
26: CNc1ccc(Br)cc(C(=O)/C=C/c2cccc(OC)c2OC)c1=O
27: CCn1c(SCC(=O)Nc2cc(C)on2)nnc1-c1ccc(S(=O)(=O)N2CCCC2)cc1
28: Cc1ccc(CN2C(=O)C(Cc3ccccc3)Nc3ncnc(N4CCN(c5ccccc5)CC4)c32)cc1 (configuration not stated)
29: CC(=O)Nc1ccccc1Nc1cc(C#N)c(C#N)cc1[N+](=O)[O-]
30: CCc1nc2c(OCc3cc(Cl)cc(Cl)c3)cccn2c1N(C)C(=O)c1ccc(OC)cc1

| entry no. | 21 | 22 | 23 | 24 | 25 | 26 | 27 | 28 | 29 | 30 |
| --- | --- | --- | --- | --- | --- | --- | --- | --- | --- | --- |
| TRPML1 agonist | -0.2 | 0.1 | 0.2 | -0.6 | 0.2 | 0.8 | -0.1 | 0.8 | 0.1 | 0.3 |
| CtBP-E1A inh | -1 | -6 | 5 | 3 | 1 | 4 | 3 | x | 0 | -15 |
| D2 PAM | -24 | -13 | -4 | -3 | -44 | -7 | 12 | -43 | u | -9 |
| D2 agonist | -1.4 | -2.3 | -3.0 | 11 | -2.1 | -0.1 | 2.8 | -13 | 7.0 | -5.6 |
| PINK1 modulator | -0.4% | -0.6% | 0.5% | -0.8% | 1.2% | x | 5.6%[38.3 µM] | 2.0% | -0.8% | 2.5% |
| Six1-Eya2 inh | -11 | -12 | 7 | -1 | 0 | 2 | -1 | -15 | -2 | -14 |

Further entries follow.
#	SMILES	TRPML1 agonist	CtBP-E1A inh	D2 PAM	D2 agonist	PINK1 modulator	Six1-Eya2 inh
31	NC(CCC(=O)O)C12CC3CC(CC(C3)C1)C2 (configuration not stated)	1.0	0	-4	-6.5	-0.5%	-1
32	O=C1C=C(c2cccc(Cl)c2)C[C@@H](c2ccc(Cl)cc2)C1	3.7	6	-2	-5.6	6.0%	10
33	O=C(NCc1ccc(F)cc1)N[C@@H](Cc1ccccc1)C(=O)O	-0.5	5	-6	-2.5	-0.8%[38.3 µM]	1
34	NCCCC[C@H](N)c1nnc([C@H](CC(=O)O)NC(=O)C2CCNCC2)o1	0.1	-18	-4	-3.7	0.2%	-12
35	COc1ccccc1-n1c(SCC(=O)N2CCOCC2)nc(O)cc1=O	-0.4	21	-1	-4.6	1.9%	4
36	CS(=O)c1ccccc1O (configuration not stated)	0.7	4	-3	-3.2	-0.5%	4
37	CS(=O)(=O)N1N=C(c2cccs2)CC1c1ccccc1 (configuration not stated)	0.0	8	-10	-3.1	4.5%	1
38	COc1ccccc1NC(=O)C1CCCN1C(=O)NC1CCCCC1 (configuration not stated)	-0.2	-1	-5	-1.1	0.6%	3
39	CN1CCN(NS(=O)(=O)c2ccc(Cl)cc2)CC1	-0.2	7	-10	-3.3	1.7%	6
40	Cc1cccc(/C=N\Nc2cn[nH]c(=O)c2Cl)c1	1.8	1	-15	-2.5	-6.8%[38.3 µM]	-3
41	NC(=O)C1(c2ccccc2)CCCN1C(=O)c1ccc(Br)cc1 (configuration not stated)	0.4	6	0	5.1	-0.9%	8
42	O=C(CCCSc1nc2ccccc2c(=O)[nH]1)c1ccc(F)cc1	-0.2	0	-2	-2.2	0.1%	-2
43	CCCCN(C=O)c1c(CC)nc2ccc(C(=O)N3CCN(C)CC3)cn12	-0.6	0	-3	-1.2	1.2%	-2
44	CN(C)c1cccc(C(=O)NNC(=S)NC2CCCC2)c1	1.3	4	-7	-3.6	0.3%	-10
45	O=C(CCNC(=O)c1ccc(Br)cc1)Nc1ccc(S(=O)(=O)N2CCOCC2)cc1	-0.3	11	0	-2.9	5.0%	-2
46	O=C(c1cc(Cl)ccc1Cl)N1CCOCC1	-0.2	6	-14	-1.3	-0.4%[38.3 µM]	1
47	Cc1ccnn1CCC(=O)O	x	16	-4	-3.3	1.5%	8
48	CC(=O)c1cc2c(cc1NC(=O)CN1CCN(c3cccc(C(F)(F)F)c3)CC1)OCO2	-0.6	-1	1	-2.0	8.7%[38.3 µM]	2
49	COc1ccc(-c2nn(-c3ccccc3)cc2C(=O)n2nnc3ccccc32)cc1	0.1	6	-13	-2.9	4.8%	-3
50	CCC(=O)N1CCCn2c1nc1ccccc12	0.1	-1	-5	-1.2	0.2%	1
51	COc1ccccc1-n1c(=S)sc2c(=O)n(Cc3ccco3)c(SC)nc21	1.6	u	-9	-1.4	2.8%[38.3 µM]	-30
52	COc1ccc(CCNC(=O)COC(=O)/C=C/c2cccc(F)c2)cc1	1.9	1	6	-0.4	3.9%	-10
53	Cc1c(C)c2ccc(OC(C)C(=O)N[C@@H](Cc3c[nH]c4ccccc34)C(=O)O)c(C)c2oc1=O (some centres not stated)	x	-18	4	-1.9	1.5%	-19
54	COc1ccccc1C(=O)NCCn1cc(SCC(=O)Nc2nnc(C)s2)c2ccccc21	0.0	-6	-19	-4.8	-0.8%	-21
55	COc1cccc(C(Nc2ccccn2)c2oc(CO)cc(=O)c2O)c1 (configuration not stated)	0.2	x	-9	4.0	-0.3%	-2
56	Cc1ccccc1C(=O)NCCCNC(=O)c1ccccc1C	-0.1	3	-11	2.9	2.8%	-5
57	CCCC1(C(=O)O)NC(c2ccc(OC)cc2O)C2C(=O)N(c3ccc(OC)cc3)C(=O)C21 (configuration not stated)	-0.7	3	-5	-2.5	-1.0%	-2
58	CN1C(=O)c2c(C(=O)Nc3ccc(Oc4ccncc4)cc3)[nH]c(-c3ccccc3)c2C1=O	-0.4	2	-7	-4.3	3.5%	10
59	COCCCN1C(=O)C(O)=C(C(=O)c2ccco2)C1c1ccc(Br)cc1 (configuration not stated)	0.3	2	-4	-1.0	-0.5%	-1

Compound activity: PubChem BioAssay, National Center for Advancing Translational Sciences (NCATS)
